Screening results: PubChem, National Center for Advancing Translational Sciences (NCATS)
Lassa entry inh: Lassa virus entry inhibition; Lassa virus pseudotype entry inhibition, cell reporter; control for the full effect not named in the record; Potency, µM (doses to about 37.9 µM), for inactives: top-dose activity change, negative = inhibition, most hits filed as inhibitors; 300,000 compounds, 1.2% hits; AID 540256; active means well fitted inhibition curve with a large enough effect; inconclusive means small, poorly fitted or top-dose-only effect, or effect the other way; inactive means flat fitted curve, though single readings scatter; tested in HEK293 cells; also: % is scaled to controls: 0 for no effect and ±100 for the full control effect; nearly all actives have a fitted effect of over 50% in size; luciferase read-out
NS1 inh: inhibitors of influenza NS1 protein function; S. cerevisiae slowed by influenza A NS1, growth recovery by OD600; Potency, µM (titrated, usually from 46.1 µM), without a hit: top-dose activity, positive = more growth; 270,000 compounds, 0.4% hits; also: actives are rising curves; nearly all actives have a fitted effect of over 50% in size
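Recovery from NS1-induced slow growth read by OD600 in budding yeast switched to galactose assay medium (pH 6.0, -URA) at 1:100 dilution. Compound 23 nl per well; the matching strain lacking NS1 serves as control.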
Marburg entry inh: Marburg virus entry inhibition; Marburg virus pseudotyped entry inhibition, cell reporter; control for the full effect not named in the record; about a third of the inactives were read at about 46 µM; Potency, µM (top dose mostly 37.8 µM), for the others: at the top dose activity change, negative = inhibition, hits mostly inhibitors; 300,000 compounds, 1.8% hits; active = well fitted inhibition curve with a large enough effect; inconclusive = small, poorly fitted or top-dose-only effect, or effect the other way; inactive = flat fitted curve, though single readings scatter; tested in HEK293 cells; about a fifth of its hits are not listed in these tables; also: % is scaled to controls: 0 for no effect and ±100 for the full control effect; luciferase read-out
SARS PLP yeast: inhibitors of SARS-CoV papain-like protease in yeast | S. cerevisiae expressing SARS-CoV PLpro, growth rescue; control for the full effect not named in the record | 330,000 compounds, 0.19% hits | Potency, µM (top dose mostly 32.9 µM), without a hit: top-dose activity, positive = growth rescue; also: 0% is about no effect; nearly all actives have a fitted effect of over 55% in size; growth read by luminescence after 48 h
RE007 growth inh: less growth of the S. pombe RE007 Vpr strain | S. pombe RE007 Vpr strain, BacTiter-Glo ATP luminescence, 24 h; control for the full effect not named in the record | Potency, µM (doses to about 92.2 µM), for inactives: at the highest dose activity change, negative = less growth | 360,000 compounds, 0.21% hits | AID 651644; active = well fitted falling curve with a large enough effect; inconclusive = small, poorly fitted or top-dose-only effect; inactive = no such curve, though single readings can be large or run the other way;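 also: % is scaled to controls: 0 for no effect and ±100 for the full control effect; nearly all actives have a fitted effect of over 50% in size; the assay follows cell death caused by Vpr and the record does not say whether a fall means rescue or toxicity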
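Fission yeast RE007 carrying one integrated HIV-1 vpr copy, seeded at OD 0.01 in PMG+AL medium with 23 nL pinned compound. Grown 24 h at 30 degrees; viability read by BacTiter-Glo luminescence after 5 min.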
StopGo reporter: FMDV 2A StopGo reporter, luciferase signal. human cells with a luciferase reporter of 2A StopGo recoding; control for the full effect not named in the record. 410,000 compounds, 1.2% hits. Potency, µM (highest dose often 57.9 µM), inactives show at the highest dose signal change, negative = less light; active = well fitted falling curve with a large enough effect; inconclusive = small, poorly fitted or top-dose-only effect; inactive = no such curve, though single readings can be large or run the other way; tested in HEK293T cells; also: % is scaled to controls: 0 for no effect and ±100 for the full control effect; nearly all actives have a fitted effect of over 45% in size; luciferase light after 4 h
Cruzain inh noDet: cruzain (T. cruzi) inhibition without detergent; Potency, µM, without a hit: max response, negative = inhibition, actives largely listed as inhibitors; purified cruzain, Z-FR-AMC fluorescence, no detergent; 200,000 compounds, 2.3% hits; P25779; AID 1476; active = well fitted curve in the direction sought with a large enough effect; inconclusive = small, poorly fitted or top-dose-only effect, or another doubt; inactive = no such curve, though single readings can be large; an effect the other way counts as inactive or inconclusive;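 also: plate controls were enzyme without inhibitor for no effect and buffer without enzyme for full effect; nearly all actives have a fitted effect of over 40% in size; top concentration of the series not given in the record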
Target sequence (P25779 123-467 limits assumed): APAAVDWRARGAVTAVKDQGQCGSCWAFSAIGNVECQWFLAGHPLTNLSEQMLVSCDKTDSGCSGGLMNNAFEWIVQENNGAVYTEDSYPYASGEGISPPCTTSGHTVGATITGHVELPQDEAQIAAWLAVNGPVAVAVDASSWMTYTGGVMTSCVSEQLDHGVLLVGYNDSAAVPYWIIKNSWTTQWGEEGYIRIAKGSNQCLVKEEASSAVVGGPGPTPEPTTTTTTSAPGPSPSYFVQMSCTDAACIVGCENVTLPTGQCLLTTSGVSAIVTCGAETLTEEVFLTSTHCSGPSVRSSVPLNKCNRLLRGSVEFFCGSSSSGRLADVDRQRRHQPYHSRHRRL
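Detergent-free condition (0.00005% Triton X-100) in acetate buffer pH 5.5 with DTT. 1.5 nM enzyme and compound were pre-mixed 15 min, then 2 uM Z-FR-AMC substrate added; reaction progress from fluorescence change between first and third reads (60 s).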
Cruzain Triton: cruzain (T. cruzi) inhibition with detergent. purified cruzain, Z-FR-AMC fluorescence, 0.01% Triton. Potency, µM, for inactives: max response, negative = inhibition, actives largely listed as inhibitors. 200,000 compounds, 0.43% hits. AID 1478; active = well fitted curve in the direction sought with a large enough effect; inconclusive = small, poorly fitted or top-dose-only effect, or another doubt; inactive = no such curve, though single readings can be large; an effect the other way counts as inactive or inconclusive;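 also: plate controls were neutral wells for no effect and buffer without enzyme for full effect; nearly all actives have a fitted effect of over 40% in size; top concentration of the series not given in the record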
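Detergent-containing arm of a paired screen for aggregation-based inhibition: 0.01% Triton X-100 present. Cruzain at 1.5 nM cleaved 2 uM Z-FR-AMC at pH 5.5 with 5 mM DTT; AMC fluorescence gain over 60 s measured activity.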
* hit, by the source's call; ? = inconclusive; nt = no result given; & = joins results of further samples; [ ] = another dose, or the depositor's remark. Unless noted, calls follow the shape of the dose curve; as a rule, active means well fitted rising curve with a large enough effect; inconclusive means small, poorly fitted or top-dose-only effect; inactive means no such curve, though single readings can be large or run the other way. Potency is read from the fitted curve at half-maximal effect.

SMILES	Lassa entry inh	NS1 inh	Marburg entry inh	SARS PLP yeast	RE007 growth inh	StopGo reporter	Cruzain inh noDet	Cruzain Triton
COc1ccc(N(C(=O)CNC(=O)c2ccco2)C(C(=O)NCC2CCCO2)c2ccccc2)c(OC)c1 (stereo not given)	-7.9%	-3.9%	10.9%[46.1 µM]	-2.5%	8.1%	6.4%	nt	nt
CN(C)c1ccc(/C=C(/C(=O)c2ccc(Cl)cc2Cl)n2cncn2)cc1	?	-27.2%	?	-68.9%	-23.1%	?	5.0%	-21.1%
CCOC(=O)c1cc(C(C)C)sc1NC(=O)COC(=O)c1nccnc1N	6.4%	nt	13.5%	-0.9%	18.8%	-15.7%	nt	nt
CSc1nnc(CSCc2ccc(Cl)cc2Cl)n1-c1ccccc1	-7.8%	-66.0%	?	-20.1%	1.4%	-20.5%	?	-8.6%
O=C(N/N=C/c1ccc2c(c1)OCO2)c1ccc(NS(=O)(=O)c2cccs2)cc1	-8.1%	nt	?	-8.3%	6.6%	42.0%[activator]	nt	nt
CCN1CCN(S(=O)(=O)c2ccc(Cl)c(C(=O)NC3CC3)c2)CC1	9.5%	nt	18.8%	0.2%	3.0%	-2.5%	nt	nt
O=C(O)c1c(-c2ccccc2)oc2ccc(OCc3c(F)cccc3Cl)cc12	?	nt	nt	nt	nt	21.0%	?	-28.9%
CNC(=O)C(=O)Nc1cc2c3c(c1)C(C)C(=O)N3CCC2 (stereo not given)	nt	2.3%	nt	1.7%	3.6%	-24.0%	nt	nt
CCCCNS(=O)(=O)c1ccc2nc(SCC(=O)Nc3cccc(F)c3)[nH]c2c1	-16.1%	13.0%	-5.9%	-12.6%	17.4%	-20.2%	-3.8%	-10.0%
COc1ccc2[nH]cc(CCNC(=O)CCC3CCCCC3)c2c1	nt	15.9%	nt	-7.0%	2.0%	0.8%	nt	nt
CC(=O)c1cccc(NS(=O)(=O)c2ccc3c(c2)oc(=O)n3C)c1	-6.1%	-6.0%	-19.3%	9.3%	-1.9%	-20.8%	-11.6%	4.6%
CCCCCCN[C@H]1CCC2C3CC=C4C[C@@H](O)CC[C@]4(C)C3CC[C@@]21C (stereo not given in full)	-20.0%[46.1 µM]	nt	?	-6.9%	-8.0%	-18.6%	nt	nt
Cc1ccc(S(=O)(=O)c2cc3c(=O)n4ccccc4nc3n(Cc3ccco3)c2=N)cc1C	-3.1%	-7.9%	-1.7%	-6.3%	-2.2%	-0.9%	-24.7%	5.6%
CCOC(=O)Cc1csc(NC(=O)CSc2nnc(-c3ccc(NS(=O)(=O)CC)cc3)o2)n1	-31.6%[14.3 µM]	nt	7.5%	nt	2.1%	?	nt	nt
Cc1ccc2cccc(N=Cc3c(C)[nH]n(-c4ccccc4)c3=O)c2n1	?	6.9%	?	-22.0%	-10.8%	?	?	-5.8%
CN(CC(=O)Nc1ccc(OC(F)(F)F)cc1)S(=O)(=O)c1cnc[nH]1	-0.2%[46.1 µM]	6.7%	?	-0.8%	9.3%	-4.8%	nt	nt
CC(=O)CN1Cc2ccccc2/C1=N\C(=O)Nc1ccccc1	15.3%	10.3%	15.6%	4.3%	-1.7%	nt	0.7%	-4.5%
O=C(Nc1ccc(S(=O)(=O)N2CCCCC2)cc1)c1ccccc1F	?	-12.2%	?	-2.1%	2.3%	-16.8%	nt	nt
Cc1ccsc1CN1CC(=O)N(c2c(C)cccc2C)C1=S	-15.3%	nt	16.5%[46.1 µM]	-2.9%	1.7%	-27.4%	nt	nt
O=C(NC(=S)N(Cc1ccccc1)Cc1ccccc1)C1CCCCC1	-17.0%	?	-7.4%[46.1 µM]	4.2%	13.4%	34.4%[activator]	6.9%	-2.4%
O=C(Nc1ccc2c(c1)CCCN2C(=O)c1cccs1)c1ccccc1	?	-11.8%	?	-33.3%	-1.0%	-14.7%&-16.7%	-4.2%	-3.9%
COC1=C/C(=C/c2c(N)n3nc(-c4ccc(C)cc4)sc3nc2=O)C=CC1=O	18.4%[46.1 µM]	14.5%	?	-0.1%	4.5%	18.3%	nt	nt
Cc1onc(-c2ccccc2Cl)c1C(=O)Nc1ccc(S(=O)(=O)N2CCCC2)cc1	nt	-0.4%	1.0%	-1.0%	8.7%	?	-14.3%	0.3%
O=C(Nc1nc2cc3c(cc2s1)OCCO3)c1cccc(N2C(=O)CCC2=O)c1	nt	2.5%	nt	1.4%	-9.0%	-2.3%	nt	nt
Cc1ccc(C(=O)OCc2nc3ccsc3c(=O)[nH]2)o1	5.4%[46.1 µM]	nt	?	2.1%	25.8%	2.3%	nt	nt

Going on with the list.
SMILES	Lassa entry inh	NS1 inh	Marburg entry inh	SARS PLP yeast	RE007 growth inh	StopGo reporter	Cruzain inh noDet	Cruzain Triton
COc1ccc(Nc2nnc(-c3ccc(C(=O)NCCO)cc3)c3ccccc23)cc1	?	-14.1%	-7.6%[46.1 µM]	-1.6%	-5.7%	-14.9%	nt	nt
Cc1ccc2nc(-c3cc(NC(=O)/C=C/c4ccccc4)ccc3Cl)oc2c1	?	nt	nt	nt	nt	17.1%	-26.7%	0.1%
CCc1nnc(NC(=O)CSc2nc3c(c(=O)n2CC)SC(C)C3)s1 (stereo not given)	nt	-6.2%	nt	-4.9%	-12.2%	?	-1.0%	2.4%
COc1ccc2[nH]c(C)c(CN3CCC(C)CC3)c(=O)c2c1	6.4%	-1.0%	-16.9%	-5.9%	5.3%	nt	2.7%	-1.2%
O=C(N/N=C/c1ccco1)c1cc(-c2ccccc2)nc2ccccc12	-14.7%[46.1 µM]	-3.1%	-11.7%[46.1 µM]	?	2.2%	-2.2%	nt	nt
CCOc1cc(C(=O)Nc2ccccc2F)cc(Br)c1OCC	-11.9%	2.8%	-1.1%	-2.8%	0.9%	-16.4%	5.6%	-10.0%
CCOC(=O)N1CCC(N2CCCC(C(=O)c3cc(C)c(OC)c(C)c3)C2)CC1 (stereo not given)	nt	-5.5%	nt	1.7%	-5.0%	-12.6%	nt	nt
O=[N+]([O-])c1cc(Cl)ccc1Oc1ccc(-c2nnco2)cc1	23.4%	nt	16.9%	-3.1%	-5.0%	2.3%	nt	nt
O=C(Nc1ccc(Cl)c(Cl)c1)Nc1nccs1	nt	-6.2%	nt	-4.7%	?	-18.1%	nt	nt
COc1cc2[nH]c(=O)n(CCC(=O)N3CCN(c4ccc(Cl)cc4)CC3)c(=O)c2cc1OC	5.7%[46.1 µM]	nt	-2.6%[46.1 µM]	nt	nt	-22.7%	12.4%	-0.5%
Cc1ccc(S(=O)(=O)N(C)C)cc1NC(=O)c1c(-c2c(F)cccc2Cl)noc1C	?	-4.1%	-18.4%[46.1 µM]	0.8%	-9.2%	3.5%	nt	nt
COc1ccccc1NS(=O)(=O)c1ccc(Cl)c(NC(=O)c2sc3cc(Cl)ccc3c2Cl)c1	?	1.8%	-2.0%	0.1%	6.1%	7.5%	nt	nt
COc1ccc2cc(/C=N/O)c(Cl)nc2c1	?	nt	16.9%	-0.9%	-12.9%	24.3%	nt	nt
Cc1ccc2nc(COc3cccc(NC(=O)Nc4ccc(C)c(Cl)c4)c3)cc(=O)n2c1	4.2%[46.1 µM]	nt	nt	nt	nt	28.4%	-2.5%	4.9%
CCCCC[C@H](CC(=O)NO)C(=O)N[C@H](C(=O)N1CCC[C@H]1CO)C(C)C	?	12.5%	?	nt	nt	nt	4.0%	7.1%
CCCn1c(SCC(=O)Nc2c(C)cccc2CC)nnc1C(C)C	-3.0%	-1.3%	-23.0%	?	-8.0%	-23.1%	-8.0%	0.7%
CCN(CC)c1ccc(NS(=O)(=O)c2ccc(OC)cc2)cc1	-26.9%[46.1 µM]	1.0%	-1.9%[46.1 µM]	0.7%	5.6%	8.9%	nt	nt
O=C1CSC(c2cccnc2)N1c1ccc(Cl)cc1 (stereo not given)	3.3%	nt	-1.4%	-8.1%	-5.5%	-4.9%	nt	nt
Cc1cc(OCCN2CCOCC2)ccc1Cl	nt	-0.6%	nt	-7.0%	-2.6%	0.0%	nt	nt
O=C(Nc1cccc(C(F)(F)F)c1)c1ccccc1NC(=O)C1CCCCC1	16.2%	5.5%	7.7%	-20.8%	1.7%	-20.1%	-0.5%	-5.1%
CCCNC(=O)NC(=O)CSc1nc(C)cs1	-21.4%	-4.0%	nt	-0.8%	0.1%	-5.8%	nt	nt
COc1ccc(CN2CCNC(=O)C2CC(=O)NC2CCCCCCC2)cc1OC (stereo not given)	8.1%[46.1 µM]	17.4%	-26.5%[46.1 µM]	20.0%	-0.7%	-8.2%	nt	nt
COc1ccc(/C=C/C(=O)N2CCN(C)CC2)cc1OC	nt	28.2%	nt	3.2%	-1.6%	-0.9%	nt	nt
CC(NC(=S)NC1CCCCC1)C(c1ccccc1)N1CCOCC1 (stereo not given)	?	nt	?	0.8%	0.6%	2.1%	nt	nt
Nc1nc(SCc2ccc([N+](=O)[O-])cc2)nc2nc3c(cc12)CCCC3	-3.2%	24.4%	-18.8%	-8.0%	-4.2%	-19.8%	?	-3.7%

Additional entries
SMILES	Lassa entry inh	NS1 inh	Marburg entry inh	SARS PLP yeast	RE007 growth inh	StopGo reporter	Cruzain inh noDet	Cruzain Triton
O=C(O)Cn1c2ccccc2c2ccccc21	0.0%	-1.8%	0.4%	-0.6%	6.3%	-4.9%	nt	nt
Cc1ccc(C2(CC(=O)Nc3nccs3)CCOC(C(C)C)C2)cc1 (stereo not given)	-4.3%	1.3%	?	-3.0%	4.5%	-13.8%	3.4%	-5.8%
CC(=O)Nc1cccc(NC(=O)C(=O)Nc2ccc3c(c2)N(C(=O)C2CC2)CCC3)c1	?	nt	?	0.4%	5.9%	-2.7%	nt	nt
COC(=O)c1ccc(C2/C(=C(/O)c3ccc(OC)cc3)C(=O)C(=O)N2Cc2ccco2)cc1 (stereo not given)	1.4%	1.2%	-4.4%	5.9%	0.0%	nt	13.7%	-2.7%
O=C(CNc1cccc(C(F)(F)F)c1)N/N=C/c1ccccc1C(=O)O	nt	-0.4%	nt	0.2%	-2.6%	-19.2%	nt	nt
CCOC(=O)C1(Cc2ccc(OC)cc2)CCN(C(=O)c2cc(C)nn2C)CC1	nt	-3.6%	nt	2.3%	3.1%	?	nt	nt
Cc1oc(-c2ccc(Cl)cc2)nc1CS(=O)CC(=O)NCc1ccc(Cl)cc1 (stereo not given)	-4.6%[46.1 µM]	nt	?	nt	nt	-23.0%	17.9%	-0.9%
COc1ccccc1CNCc1cccc(Oc2ccccc2)c1	-14.6%[46.1 µM]	-1.7%	11.2µM*	0.3%	-7.3%	-22.6%	nt	nt
